# Screening data as filed in PubChem.
# MgrA-DNA mod: S. aureus MgrA activity modulators, primary screen, biochemical, S. aureus Newman, fluorescence polarization. MgrA-DNA binding. inhibition, %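 (about 10 µg/mL by stock and volumes)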. 0.13% of 84,000 active. AID 602314, 2012;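 active = above 50% in either of two replicates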;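 also: 0% = protein plus DNA without compound and 100% = DNA alone without protein; higher means less MgrA bound to DNA so lower polarization; one replicate is shown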
# S aureus helic: inhibitors of S. aureus replicative helicase, primary screen, biochemical, fluorescence unwinding readout; purified S. aureus helicase, fluorescence unwinding assay; about half of the hits fall short of the stated cut; inhibition, %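 (tested at about 80 µM)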; AID 485395, 2010; replicative DNA helicase (DnaC/DnaB), Staphylococcus aureus; 0.05% of 120,000 active;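 active = both duplicates at 50% or more, or one of them with a favoured structure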;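 also: 0% = mean of negative control wells and 100% = mean of positive control wells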
# Starred values were filed as active, the others as inactive; . = no result given; & = joins results of further samples. These rows are one share of the data; rates above refer to the full screens.
# Start of the data: the first 5 compounds as a preview:
cpd	smiles	MgrA-DNA mod	S aureus helic
1	O=C(OCc1ccco1)c1cnc(Nc2ccc(OC(F)(F)F)cc2)nc1C(F)(F)F	.	13
2	COc1ccc(C(=O)N(C)C2CCCCC2)cc1	1.6	4
3	Cc1sc(NC(=O)c2ccco2)c(C(c2ccncc2)N2CCOCC2)c1C (stereo not drawn)	.	-32
4	COC(=O)CSc1nc(-c2ccc(F)cc2)[nH]c1-c1ccc(C)cc1	-1.8	6
5	COc1cc(OC)cc(-c2nc3ccccc3c(=O)n2OC(=O)/C=C/c2ccccc2Cl)c1	0.0	.

# The list itself, previewed entries included:
cpd	smiles	MgrA-DNA mod	S aureus helic
1	O=C(OCc1ccco1)c1cnc(Nc2ccc(OC(F)(F)F)cc2)nc1C(F)(F)F	.	13
2	COc1ccc(C(=O)N(C)C2CCCCC2)cc1	1.6	4
3	Cc1sc(NC(=O)c2ccco2)c(C(c2ccncc2)N2CCOCC2)c1C (stereo not drawn)	.	-32
4	COC(=O)CSc1nc(-c2ccc(F)cc2)[nH]c1-c1ccc(C)cc1	-1.8	6
5	COc1cc(OC)cc(-c2nc3ccccc3c(=O)n2OC(=O)/C=C/c2ccccc2Cl)c1	0.0	.
6	O=C(/C=C/c1cccs1)Nc1nnc(-c2cccs2)o1	.	6
7	CSc1sc(Cl)c2c1C(=O)CC(C)(C)C2	1.8	.
8	NC(=O)C1C2CCC(C2)C1C(=O)c1ccccc1 (stereo not drawn)	0.5	1
9	Cn1c(Cn2c(=O)sc3ccccc32)nnc1SCc1ccc(Cl)cc1	.	20
10	CC1Sc2ccc(C(=O)Nc3ccc(S(=O)(=O)NCc4ccco4)cc3)cc2NC1=O (stereo not drawn)	.	-8
11	O=C(NCCc1ccncc1)c1c(Cl)cccc1Cl	0.6	.
12	O=C(NC1=NCCS1)C1CCN(c2ncc(C(F)(F)F)cc2Cl)CC1	.	7
13	CS/C(N)=N/S(=O)(=O)c1cccs1	.	-5
14	CCOc1ccc(-n2nnc(C(=O)NCCCn3ccnc3)c2C)cc1	.	-1
15	COCCn1c(=O)[nH]c2cc(C(=O)NCC3CCCO3)ccc2c1=O (stereo not drawn)	.	-38
16	CC1CN(C(=S)NCc2ccco2)CC(C)O1 (stereo not drawn)	-3.3	6
17	Cc1cccc(NC(=O)c2ccc(C)c(S(=O)(=O)N3CCCC3)c2)c1	0.8	7
18	CCN(Cc1ccccc1)C(=O)Nc1c[nH]c2ccccc12	.	-13
19	CN(CC(=O)NC1(C#N)CCCC1)c1ccccc1	.	-7
20	Cc1onc(-c2c(F)cccc2Cl)c1C(=O)Nc1nnc(C2CC2)s1	3.5	.
21	O=C(O)CC1NC(=O)c2ccccc21 (stereo not drawn)	-3.7	5
22	CN(CC#N)c1ccc(C2OCC3(CCC4(COC(c5ccc(N(C)CC#N)cc5)OC4)C3=O)CO2)cc1 (stereo not drawn)	.	4
23	NC(=O)c1ccc2c3c(cccc13)CC2	.	13
24	Cn1ccnc1CC(O)(c1ccccc1)c1ccccc1	-0.4	-18
25	CCOc1ccc(C2CSc3nc4ccccc4n3C2=O)cc1 (stereo not drawn)	.	-5
26	Cc1nccn1S(=O)(=O)c1c(C(C)C)cc(C(C)C)cc1C(C)C	4.8	3
27	Cc1nc(/N=C/N(C)C)c(Br)cc1Br	.	-18
28	O=C(O)CCn1ccnc1	-4.6	10
29	NC(=O)COc1coc(CN2CCc3ccccc3C2)cc1=O	.	-13
30	CCC(=O)N1CCc2cc(S(=O)(=O)NC(CC(C)C)C(=O)Nc3cc(C)ccc3C)ccc21 (stereo not drawn)	0.8	0
31	Cn1c(CSCC(=O)Nc2ccccc2)nnc1SCC(=O)c1ccc(F)c(F)c1	-1.1	.
32	CCOC(=O)CCc1c(C)n[nH]c1C	.	1
33	COC(=O)c1ccc(C(=S)NCC(OC)OC)cc1	.	21
34	CC(C)CNC(=O)C1CCN(C(=O)c2ccc(F)cc2)CC1	-1.0	9
35	COc1ccccc1NC(=O)C1COc2ccccc2O1 (stereo not drawn)	-0.7	.
36	O=C(CN1CCOc2ccccc21)NCc1ccco1	0.5	-18
37	Cc1ccc(/C=C2/N=C(c3ccccc3)NNC2=O)cc1	.	3
38	Cc1nn(-c2ccccc2)c2c1nc(CCC(=O)NCC1CCCO1)c(=O)n2C (stereo not drawn)	.	5
39	CC(C)(C)N(Cc1ccccc1)C(=O)c1ccco1	-3.6	17
40	OC(COc1ccc2oc3ccccc3c2c1)CN1CCN(Cc2ccccc2)CC1 (stereo not drawn)	.	18
41	COC(=O)c1cn(NC(=O)Cc2ccccc2OC)c(=O)c2ccccc12	-1.0	4
42	CCOc1cc(C(F)(F)F)c(C(=O)N(C)Cc2ccc(Cl)cc2)cn1	-0.4	.
43	COc1cc(C(=O)Nc2ccc3oc(-c4ccc5ccccc5c4)nc3c2)cc(OC)c1OC	1.9	.
44	CSc1cc(-c2nccs2)[nH]n1	1.5	.
45	COc1ccc(-c2csc(-c3cccnc3)n2)cc1	-1.8	0&8
46	S=c1[nH]nc(-c2ccncc2)n1-c1ccc2c(c1)OCO2	5.3	-4
47	Nc1nncn1C(=O)CCCOc1ccccc1	8.4	-7
48	C=CCN1CCS(=O)(=O)CC1	2.9	.
49	COc1ccc(C2(O)CCN(CCCCOc3ccccc3)CC2)cc1	-1.9	-3
50	Nc1cccc2c1C(=O)N(C(=O)c1ccc3c(c1)S(=O)(=O)N=C1CCCCCN13)C2=O	.	-5

# The list continues.
cpd	smiles	MgrA-DNA mod	S aureus helic
51	CC1(C)Cc2ccccc2C(C(=O)c2ccccc2)=N1	.	5
52	OCCN1CCN(c2ncnc3ccc(Br)cc23)CC1	.	15
53	COC(=O)c1ccc2c(=O)n(CC3CCCO3)c(SCc3coc(-c4cccs4)n3)nc2c1 (stereo not drawn)	.	20
54	Cn1c(=O)c2c(ncn2CCC(=O)NCCc2ccc(F)cc2)n(C)c1=O	-3.4	-4
55	O=S(=O)(NCCOC12CC3CC(CC(C3)C1)C2)c1cc(Cl)ccc1Cl	-0.5	13
56	N#Cc1ccccc1Oc1ccccc1F	-2.5	.
57	Cc1cc2c(cc1S(=O)(=O)NC1CCCCC1)OCCN2C	3.8	3
58	Cc1ccnc(NC(=O)CSc2ccccn2)c1	-1.8	.
59	Clc1ccc(-c2nnc(C3CC3)o2)cc1	-0.4	.
60	O=C(c1ccc2c(c1)CCO2)N1CC=C(c2ccccc2)CC1	-1.9	.
61	O=C1CCCC2=C1C(c1ccccc1Cl)N=C(Nc1nc3ccccc3s1)N2 (stereo not drawn)	-0.7	15
62	CNC(=O)c1csc(-c2ccccc2)n1	1.1	.
63	Cn1c(=NC(=O)C2CCCCC2)sc2cc(F)ccc21	.	4
64	Cn1ncc2c(N3CCCCC3)nc(N3CCCC3)nc21	.	-13
65	CCOC(=O)c1sc2nc(CN3CCOCC3)nc(NCC3COc4ccccc4O3)c2c1C (stereo not drawn)	.	-18
66	CSc1nc(-c2cnccn2)nc(C2CC2)c1C#N	-0.8	.
67	CN(C)c1ccc(-c2nc3cnccn3c2Nc2ccccc2)cc1	.	-39
68	Cc1ccc2oc(=O)c3cnn(CC(=O)NCCc4ccc(S(N)(=O)=O)cc4)c3c2c1	.	17
69	COc1ccccc1NC(=O)CN(C)S(=O)(=O)c1ccc2c(c1)n(C)c(=O)c(=O)n2C	.	25
70	CCOC(=O)c1ccc(NC(=O)Nc2ccc3c4c(cccc24)C(=O)N3CC)cc1	.	-112
71	c1ccc2c(c1)OCC(CNc1ncnc3sccc13)O2 (stereo not drawn)	.	-9
72	COc1cccc(OC)c1C(=O)Nc1c(C(=O)N2CCN(c3ncccn3)CC2)oc2ccccc12	.	-18
73	CC1(C)CC(=O)C=C(N2CCN(c3ccccn3)CC2)C1	.	20
74	Cc1ccc(NC(=O)c2cc(S(=O)(=O)N3CCCC3)ccc2F)cc1	.	1
75	NC(=O)c1cc(N)ccc1N1CCOCC1	-0.5	5

# A second format for some results above:
[35] COc1ccccc1NC(=O)C1COc2ccccc2O1 (stereo not drawn)
  MgrA-DNA mod = -0.7; S aureus helic = .
[36] O=C(CN1CCOc2ccccc21)NCc1ccco1
  MgrA-DNA mod = 0.5; S aureus helic = -18
[37] Cc1ccc(/C=C2/N=C(c3ccccc3)NNC2=O)cc1
  MgrA-DNA mod = .; S aureus helic = 3
[38] Cc1nn(-c2ccccc2)c2c1nc(CCC(=O)NCC1CCCO1)c(=O)n2C (stereo not drawn)
  MgrA-DNA mod = .; S aureus helic = 5

# Remaining list, next part.
cpd	smiles	MgrA-DNA mod	S aureus helic
76	CCOC(=O)C1CCN(C(=O)Cn2ncc3c(C)n(Cc4ccc(Cl)cc4)c(C)c3c2=O)CC1	-1.1	-3
77	Oc1ccccc1Oc1ncc(Br)c(N2CCOCC2)n1	.	6
78	O=C(O)c1[nH]c2ccccc2c1CC(=O)N1CCN(c2ccccc2F)CC1	3.1	6
79	Cn1c(SC2CCOC2=O)nnc1-c1ccccc1F (stereo not drawn)	.	-1
80	COc1ccc(C=Nc2ccc(C)cc2)cc1	3.8	-8
81	CC(=O)N1CCn2c1nc(N(C)C)nc2=O	.	11
82	CCN(CC)S(=O)(=O)c1cccc(C(=O)NCc2ccccc2)c1	-1.4	6
83	COc1ccc(NC(=O)COc2cccc(OCC(C)C)c2)cc1	.	10
84	O=C(NCc1ccco1)c1cc(C(=O)C2CC2)c[nH]1	-3.8	.
85	CC(=O)N(CCP(=O)(c1ccccc1)c1ccccc1)Cc1ccco1	0.0	19
86	O=S(=O)(NCc1ccc(C(F)(F)F)cc1)c1cc(C(F)(F)F)cc(C(F)(F)F)c1	-2.1	.
87	CSC1=NC(C)N2C(SC)=NC(C)N12 (stereo not drawn)	-3.8	.
88	COc1ccc(-c2nn(-c3ccccc3)cc2NC(=O)Nc2cccc(C#N)c2)cc1OC	.	-5
89	CN(C)C(=O)/C(=C/C=C/c1ccccc1)NC(=O)c1ccccc1	-8.2	3
90	NNC(=O)C1CCN(c2ncc(C(F)(F)F)cc2Cl)CC1	.	-21
91	O=C(Nc1cnc2ccccn2c1=O)c1ccc(F)cc1	.	23
92	CC(C)c1cc(C(=O)NCc2ccco2)no1	.	9
93	COc1ccc(-c2n[nH]c3c2C(c2ccc(OC)cc2)N(c2ccccc2)C3=O)cc1 (stereo not drawn)	.	-40
94	O=C(CCn1c(=O)c2ccccc2n(Cc2cc(=O)n3ccccc3n2)c1=O)NCc1ccc2c(c1)OCO2	.	-26
95	O=C(COC(=O)c1cc(Br)ccc1O)NC1CCCCC1	-7.8	-17
96	COC(=O)/C=C/c1cccc(Br)c1	0.2	.
97	COCCn1c(C)cc(C(=O)c2sc(-c3c(N)n(C)c(=O)n(C)c3=O)nc2-c2ccccc2)c1C	.	-14
98	COc1cccc(C(=O)NCc2ccc3c4c(cccc24)C(=O)N3)c1	.	-6
99	CN(C(=O)Cn1c(SCc2ccccc2F)nc2ccncc21)c1ccccc1	-1.8	-5
100	Oc1c(O)c(CN2CCCCC2)c2ccccc2c1CN1CCCCC1	3.6	.
101	CC(Sc1nnc(Cc2cccc3ccccc23)n1C1CCCCC1)C(=O)NCc1ccco1 (stereo not drawn)	.	1
102	O=c1[nH]c(CN2CCOCC2)nc2c1oc1ccccc12	.	10
103	COc1cc(-c2cc(C(=O)O)c3ccc(C)cc3n2)cc(OC)c1OC	1.5	.
104	O=C(O)CCSCc1ccccc1F	-3.6	-7
105	COC(=O)c1ccc(OCC(=O)c2cccc(OC)c2)cc1	2.2	18
106	Cn1c(=O)n(Cc2ccccc2F)c(=O)c2c1nc1n2CCCN1Cc1ccco1	.	4
107	CC1CN(C(=O)COC(=O)C2CCC(C(C)(C)C)CC2)CC(C)O1 (stereo not drawn)	.	4
108	COc1ccc2c(c1)CC/C(=C/c1cccs1)C2=O	.	37
109	CCOc1ccccc1N1CCN(C(=O)C2CCN(Cc3ccc(OC)cc3)CC2)CC1	-5.0	14
110	CCc1cccc(C)c1NC(=O)c1ccc(C(=O)Nc2c(C)cccc2CC)cc1	2.1	1
111	COc1ccc(-n2ncnc2-c2ccc(Cl)cc2Cl)cc1	1.0	10
112	CCOC(=O)C(CC)Sc1ncnc2nc[nH]c12 (stereo not drawn)	.	11
113	O=C(NC1CCCCC1)c1ccc2c(c1)ncn2C1CCCCCC1	-0.3	4
114	O=C(CCn1nc(-c2ccccc2)ccc1=O)NCCc1ccccc1	2.5	-1
115	CC(=O)Oc1ccccc1C(=O)NC(C)(C)C	-2.8	-4
116	NCC1COc2ccccc2O1 (stereo not drawn)	3.6	8
117	COc1ccc(OC)c(C2CC(c3ccc(Br)cc3)=NN2C(=O)CCCC(=O)O)c1 (stereo not drawn)	-0.5	.
118	Cc1cc(C)nc(NS(=O)(=O)c2ccc(NC(=O)c3ccc(Cl)cc3Cl)cc2)n1	-1.1	.
119	COC(C(=O)NCc1ccc(C)cc1)c1ccccc1 (stereo not drawn)	-3.2	10
120	COc1ccc(N2CC(NC(=O)N(CC(C)C)CC(C)C)CC2=O)cc1 (stereo not drawn)	.	-17
121	O=C(CCc1ccc(-c2ccccc2)o1)N1CCN(S(=O)(=O)Cc2ccccc2)CC1	.	11
122	CC1CCCCC1NC(=O)c1cccc(N2C(=O)C3C4C=CC(C4)C3C2=O)c1 (stereo not drawn)	2.2	7
123	CCN(c1ccccc1)S(=O)(=O)c1ccc(-n2cccn2)cc1	.	17
124	CCOc1cc(-c2ccccc2)nc(N)n1	-0.3	.
125	O=C(O)CN1CCC(c2ccccc2)CC1	0.8	-2

# (listing goes on)
cpd	smiles	MgrA-DNA mod	S aureus helic
126	Cc1ccc(C)c(OC(=O)/C=C/c2ccco2)c1C	.	-6
127	Cc1ccc(S(=O)(=O)NCC2COC3(CCCCC3)O2)cc1 (stereo not drawn)	.	6
128	CC1CCCC(C)N1C(=O)COc1ccc(C(=O)O)cc1 (stereo not drawn)	-1.8	-1
129	Cc1cc(S(=O)(=O)N(C)CCc2ccccc2)ccc1-n1cnnn1	0.6	1
130	Cn1c(C2CC(=O)N(c3cccc4ccccc34)C2)nc2ccccc21 (stereo not drawn)	.	6
